Source: PubChem (Johns Hopkins Ion Channel Center)
CHT allo act: CHT positive allosteric modulators, primary screen, cell-based, membrane potential dye, choline EC20; High affinity choline transporter 1 (Homo sapiens), Q9GZV3; CHT-expressing cells; stronger effect = higher value; LV-AA mutant CHT in HEK293 cells; B-score at 10 µM; 0.49% of 310,000 active; AID 488977, 2010;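 active means initial fluorescence not abnormally high and integrated response B-score, plate-corrected, over 3 SD above library mean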
Target sequence (Q9GZV3 whole entry, looked up): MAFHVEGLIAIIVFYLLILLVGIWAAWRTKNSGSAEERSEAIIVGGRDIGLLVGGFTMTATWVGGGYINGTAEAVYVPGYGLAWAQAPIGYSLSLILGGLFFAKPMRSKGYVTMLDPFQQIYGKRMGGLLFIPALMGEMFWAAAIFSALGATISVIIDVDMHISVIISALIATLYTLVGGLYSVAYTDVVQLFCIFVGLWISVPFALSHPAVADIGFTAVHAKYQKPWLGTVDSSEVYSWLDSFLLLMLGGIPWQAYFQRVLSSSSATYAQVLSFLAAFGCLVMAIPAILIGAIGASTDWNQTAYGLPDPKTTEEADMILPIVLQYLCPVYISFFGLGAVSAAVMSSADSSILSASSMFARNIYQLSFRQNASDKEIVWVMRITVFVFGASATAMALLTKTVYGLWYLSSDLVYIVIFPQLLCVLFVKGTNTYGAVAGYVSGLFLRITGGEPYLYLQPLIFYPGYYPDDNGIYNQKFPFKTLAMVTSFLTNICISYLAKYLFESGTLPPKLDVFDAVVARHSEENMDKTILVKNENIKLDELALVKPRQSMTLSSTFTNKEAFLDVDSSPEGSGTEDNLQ
Calls only; i = inactive.

SMILES	CHT allo act
CN(C)S(=O)(=O)c1cc(NC(=O)c2ccc(-n3ccnc3)c([N+](=O)[O-])c2)ccc1Cl	i
COc1ccc(/C=N\NC(=O)C2CCCC2)cc1Br	i
CNC(=O)c1cc2c(cn1)[nH]c1ccccc12	i
N#Cc1ccccc1S(=O)(=O)c1ccccc1C(=O)Nc1ccccc1	i
CCOC(=O)N1CCN(C(=O)c2ccc(NS(=O)(=O)c3ccc4[nH]c(=O)[nH]c4c3)cc2)CC1	i
CC(C(=O)Nc1sccc1C(N)=O)N1C(=O)C2CC=CCC2C1=O (centres undefined)	i
COc1ccc(N2CS(=O)CC2=O)cc1 (centres undefined)	i
O=C(c1ccc(Br)cc1)N1CCC2(CC1)NCCc1[nH]cnc12	i
O=C(O)c1cccc(Nc2nc(C(F)(F)F)nc3ccccc23)c1	i
NS(=O)(=O)c1ccc(N/N=C/c2ccncc2)cc1	i
O=C1C2=C(SCCS2)C(=O)N1c1ccccc1	i
COc1ccc(N2C(=O)C3[C@@H](C2=O)C2(Cl)C(Cl)=C(Cl)C3(Cl)C2(OC)OC)cc1 (some centres undefined)	i

Two of the compounds above, as comma-separated lines:
smiles,CHT allo act
NS(=O)(=O)c1ccc(N/N=C/c2ccncc2)cc1,i
O=C1C2=C(SCCS2)C(=O)N1c1ccccc1,i

The results go on:
SMILES	CHT allo act
O=C(CCCN1CCC(c2ccccc2)C1)c1ccc2c(c1)OCCO2 (centres undefined)	i
CSc1ccccc1C(=O)Nc1cc([N+](=O)[O-])ccc1C	i
COc1ccc2cc(C(N)=O)c(=Nc3ccccc3)oc2c1	i
COc1ccccc1NC(=O)CSc1nnc(-c2ccoc2C)n1C	i
CC(=O)N1CCc2cc(S(=O)(=O)CCC(=O)NCc3ccc(Cl)cc3)ccc21	i
O=C(O)COc1ccc2occ(C(=O)c3ccccc3)c2c1	i
COc1ccc(C(=O)NC2CCSc3ccccc32)cc1 (centres undefined)	i
CN(C)C(=O)CSc1nnc(Cc2ccccc2)n1CC1CCCO1 (centres undefined)	i
Nc1nonc1-n1nnc(C(=O)N/N=C/c2ccccc2)c1CSc1ccc(Cl)cc1	i
O=C(OCC(=O)N1CCc2ccccc21)c1ccccc1	i
O=C(CN(Cc1ccc(Cl)cc1)C(=O)CNS(=O)(=O)c1ccccc1)NCC1CCCO1 (centres undefined)	i
COc1ccnc2c1c(=O)n(Cc1cccc(Cl)c1)c(=O)n2C	i

Next part; the last 4 above are carried over.
SMILES	CHT allo act
Nc1nonc1-n1nnc(C(=O)N/N=C/c2ccccc2)c1CSc1ccc(Cl)cc1	i
O=C(OCC(=O)N1CCc2ccccc21)c1ccccc1	i
O=C(CN(Cc1ccc(Cl)cc1)C(=O)CNS(=O)(=O)c1ccccc1)NCC1CCCO1 (centres undefined)	i
COc1ccnc2c1c(=O)n(Cc1cccc(Cl)c1)c(=O)n2C	i
Cc1ccc(CNC(=O)c2sccc2-n2cccc2)cc1	i
COc1ccc2c(c1OC)C(=O)N1N=C(c3ccc(F)cc3)CC21 (centres undefined)	i
Cc1ccc(CCN2C(=O)CCC2(C)C(=O)NCc2cccnc2)cc1 (centres undefined)	i
Cc1onc(-c2ccccc2)c1NC(=O)Nc1ccc(OC(F)F)cc1	i
CCn1cc(S(=O)(=O)Nc2nc3ccc(OC)cc3s2)cn1	i
CCc1nnc(NC(=O)C2CCN(S(=O)(=O)c3ccc(C)cc3)CC2)s1	i
N#Cc1c(-c2ccccc2)nc(SCC(=O)Nc2nnc(C(F)(F)F)s2)[nH]c1=O	i
CN(NC(=O)c1ccccc1)c1nc2ccccc2nc1C(F)(F)F	i
C=CCCN(C1CCCC1)S(=O)(=O)c1ccccc1Br	i
CCOC(=O)C1CCN(C(=O)c2cccc(S(=O)(=O)Nc3ccc(C)cc3C)c2)CC1	i
Cc1ccc(N/N=C/C=C/c2ccco2)cc1	i
Cc1ccccc1NC(=O)C1CCN(C2=NS(=O)(=O)c3ccccc32)CC1	i
O=C(NCCOc1ccccc1Cl)c1ncn[nH]1	i
N#Cc1c(-c2ccccc2F)cc(C2CC2)nc1SCC(=O)c1cccs1	i
O=C(CNC(=O)c1ccccc1)Nc1ccsc1C(=O)O	i
COC(=O)c1cccc(CSC(=S)N2CCCC2)c1	i
Cc1ccccc1CS(=O)(=O)Cc1ccc(C(=O)N2CCOCC2)o1	i
CCCn1c(=O)c(F)cn(Cc2ccc(OC)c([N+](=O)[O-])c2)c1=O	i
Cc1cc(=O)[nH]c(SCC(N)=O)c1C#N	i
O=C(N/N=C/C=C\c1ccccc1[N+](=O)[O-])c1ccccn1	i
CC1=CC(C)(C)NC(=S)N1c1ccccc1	i
O=[N+]([O-])c1cccc(/C=N/N2CCN(c3ccccn3)CC2)c1	i
COc1ccc(C2C(C#N)=C(N)N(c3ncn[nH]3)C3=C2C(=O)CCC3)cc1 (centres undefined)	i
Cc1ccc(NC(=S)N(CCCN2CCC(C)CC2)Cc2ccco2)cc1	i

An excerpt of these results, field by field.
structure: COc1ccc2c(c1OC)C(=O)N1N=C(c3ccc(F)cc3)CC21 (centres undefined)
  CHT allo act: i
structure: N#Cc1c(-c2ccccc2F)cc(C2CC2)nc1SCC(=O)c1cccs1
  CHT allo act: i
structure: CNC(=O)c1cc2c(cn1)[nH]c1ccccc12
  CHT allo act: i

Following part.
SMILES	CHT allo act
COc1ccc(-c2cc3nc(C)cc(-c4ccc(OC)cc4)n3n2)cc1	i
COc1ccc(-c2nc(N)n(S(=O)(=O)c3ccc(C)cc3)n2)cc1	i
Nc1nc(Cl)cc(Nc2ccccc2Cl)n1	i
COc1ccc(NC(=O)CN(C)C(=O)C2CC(=O)N(Cc3ccc(C)cc3)C2)cc1 (centres undefined)	i
O=C(Nc1ccccc1)Nc1ccccc1-n1ccnc1	i

Ordered by number of heavy atoms (lowest first): part of the list above
SMILES	CHT allo act
Nc1nc(Cl)cc(Nc2ccccc2Cl)n1	i
O=C(Nc1ccccc1)Nc1ccccc1-n1ccnc1	i
Cc1ccc(NC(=S)N(CCCN2CCC(C)CC2)Cc2ccco2)cc1	i

An excerpt, and most or all hits are left out here.
